# High-throughput results from PubChem.
# FGF22 binding: binders of recombinant human FGF22 by thermal shift | hit rate 1.5% among 340,000 | SYPRO orange fluorescence; percent of sucrose octasulfate shift, DMSO zero | calls only at 9.99 µM | Q9HCT0;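 active means melting point raised past a set limit in the mean and every replicate; three in four hits are not shown here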
# Target sequence (Q9HCT0 whole entry, looked up): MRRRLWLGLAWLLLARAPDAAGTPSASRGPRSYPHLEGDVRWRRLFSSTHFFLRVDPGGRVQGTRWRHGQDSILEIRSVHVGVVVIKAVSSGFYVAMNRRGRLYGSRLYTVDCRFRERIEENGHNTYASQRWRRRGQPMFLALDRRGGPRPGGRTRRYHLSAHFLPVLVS
# LANA-H2B inh: blocks KSHV LANA binding to histone H2A/H2B; Q9QR71; cell-free LANA-H2A/H2B peptide, fluorescence polarization; inhibition, % (test concentration not listed); hit rate 0.6% among 320,000; in the data active means inhibition mostly above about 10%, no sharp cut-off; inactive means mostly below about 6.7%;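 further: stock transfer was 7.5 nL into about 10 µL; 0% = median of vehicle wells and 100% = median of positive control wells; one replicate is shown; the record names a cut of 25% in any replicate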
# ALR H2O2 inh: inhibitors of human sulfhydryl oxidase ALR; P55789; purified ALR, DTT oxidation, H2O2 HRP-luminol luminescence; inhibition, % (no concentration beside the values); hit rate 3.8% among 290,000; AID 485317;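 active means mean and each replicate at 75% or more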;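 further: stock transfer was 7.5 nL into about 7.5 µL; 0% = neutral wells and 100% = wells with inactivated enzyme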
# Target sequence (P55789 whole entry, looked up): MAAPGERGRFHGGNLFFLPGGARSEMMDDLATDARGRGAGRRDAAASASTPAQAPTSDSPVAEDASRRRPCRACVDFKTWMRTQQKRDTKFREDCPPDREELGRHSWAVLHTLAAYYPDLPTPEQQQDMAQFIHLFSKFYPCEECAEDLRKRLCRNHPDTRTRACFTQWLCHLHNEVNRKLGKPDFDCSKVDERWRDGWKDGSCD
# UCH37 inh: blocks the human deubiquitinase UCH37; Q9Y5K5; purified proteasome/UCH37, Ub-AMC cleavage fluorescence; inhibition, % (test concentration not listed); hit rate 0.33% among 330,000;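 active means mean of two replicates above 20%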;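 further: 0% = compound-free wells with enzyme and 100% = wells lacking proteasome; stock transfer was 100 nL into about 20 µL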
# Target sequence (Q9Y5K5 whole entry, looked up): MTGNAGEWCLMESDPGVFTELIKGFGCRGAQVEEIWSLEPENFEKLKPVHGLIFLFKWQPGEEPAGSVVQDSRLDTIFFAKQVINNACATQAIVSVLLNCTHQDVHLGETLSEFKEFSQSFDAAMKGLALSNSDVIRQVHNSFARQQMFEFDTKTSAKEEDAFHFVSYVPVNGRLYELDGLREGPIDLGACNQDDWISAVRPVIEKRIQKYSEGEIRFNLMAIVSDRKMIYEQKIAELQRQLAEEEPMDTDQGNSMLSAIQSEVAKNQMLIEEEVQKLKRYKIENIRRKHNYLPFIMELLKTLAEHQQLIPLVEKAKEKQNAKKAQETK
#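 System: Proteasome-associated human UCH37 deubiquitinase; Input: 0.15 nM proteasome in added enzyme buffer; Also added: Ub-AMC substrate from 1 µM stock; Incubation: 30 min compound-proteasome preincubation then 25 min substrate reaction, room temperature; Detection: fluorescence, ex 355 nm, em 460 nm; Read-out: % inhibition of Ub-AMC cleavage fluorescence; Benchmarks: no-proteasome and no-compound wells.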
# HNF4A DNA FP: change in binding of human HNF4 alpha to DNA | activity change, % at 10 µM | HNF4a-FITC DNA binding, fluorescence polarization, 1 h | P41235 | hit rate 0.3% among 360,000; in the data active means activity change above about 30%, passing the limit was not always enough;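 further: controls were the assay level and a saturating level of protein; the project sought stronger binding though the title names inhibitors; some compounds called inactive have numbers as strong as hits; positive values seem to mean higher polarization but the record does not say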
# E coli growth: E. coli growth inhibition | OD600 absorbance (test concentration not listed) | Escherichia coli growth, OD600, 23 h; active compounds read low | hit rate 0.21% among 330,000;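 active means OD600 absorbance below the run mean of sample wells minus 3.6 SD, in any replicate, cut at about 0.56 in these data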;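 further: stock transfer was 300 nL into about 60 µL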
# B2AR ag: human beta-2 adrenergic receptor agonism by FAP; P07550; Am2.2-beta2AR cells, FAP receptor internalization, flow cytometry; reference of the scale not given here; response, % (test concentration not listed); hit rate 0.43% among 340,000; AID 504454;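 active means response above a set limit, near 3 SD of response in nonfluorescent compounds, cut at about 42% in these data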;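 further: stock transfer was 100 nL into about 11 µL; a reference agonist was the positive control; negative values mostly stem from fluorescent compounds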
# Starred values were filed as active, the others as inactive; i = inactive; nt = not tested or not shown. These rows are one share of the data; rates above refer to the full screens.
mol | FGF22 binding | LANA-H2B inh | ALR H2O2 inh | UCH37 inh | HNF4A DNA FP | E coli growth | B2AR ag
CCCCNC(=O)CC1C(=O)N(Cc2ccccc2)C(C)c2nc3ccccc3n21 (centres undefined) | nt | -0.7 | -1.3 | 3.1 | 2.2 | 0.712 | -9.5
Cc1ccc(C(=O)N2CCN=C2SCc2ccc([N+](=O)[O-])cc2)cc1 | i | -0.6 | 98.7* | 2.6 | -1.2 | 0.724 | -0.4
Cc1cc(/C=C(\C#N)C(=O)O)c(C)n1C1CC1 | nt | 5.9 | nt | 20.7* | -2.0 | 0.72 | -1.2
Cc1cc2ccccc2n2c(SCC(=O)Nc3ccc(S(=O)(=O)N4CCCCC4)cc3)nnc12 | nt | 4.9 | 0.4 | 2.2 | -1.8 | 0.699 | -20.8
COc1cc(/C=C/C(=O)c2ccc(F)cc2)cc(OC)c1OC | i | 0.4 | 96.6* | 5.7 | -3.1 | 0.697 | 3.4
Cc1ccnc(NC(=O)Cc2ccc([N+](=O)[O-])cc2)c1 | i | -0.2 | -0.2 | -0.7 | 1.0 | 0.729 | 0.4
CCOC(=O)CSc1nc(C)c2ccc(C)cc2n1 | nt | 1.2 | -1.1 | 0.0 | 3.5 | 0.691 | 6.8
O=C(NCC1CCCO1)c1cc(-c2ccncc2)nc2ccc(S(=O)(=O)N3CCOCC3)cc12 (centres undefined) | nt | 4.4 | -2.3 | 2.1 | -2.0 | 0.695 | -4.0
CCOC(=O)CNC(=O)c1cccnc1 | nt | -0.9 | 3.0 | 3.2 | 0.2 | 0.74 | 0.5
Cc1ccc(N(CN2C(=O)NC(C)(C)C2=O)CN2C(=O)NC(C)(C)C2=O)cc1 | nt | 7.3 | 33.5 | 4.4 | -2.4 | 0.737 | 5.4
COc1ccc([N+](=O)[O-])cc1NC(=O)CCN1CCN(CCO)CC1 | i | -0.8 | 0.5 | 6.0 | 1.2 | 0.677 | -1.2
COC(=O)/C(=N/Nc1ccccc1OC)N1CCCc2ccccc21 | i | 4.2 | nt | nt | 1.9 | nt | 5.2
Cc1nc(-c2cccc(NS(=O)(=O)c3ccc4ccccc4c3)c2)cs1 | nt | 0.5 | -9.7 | 2.3 | 6.7 | 0.686 | -3.0
O=C(O)C1C(c2ccccc2)C(C(=O)OCc2ccco2)C1c1ccccc1 (centres undefined) | nt | 3.2 | 48.2 | 1.6 | -7.2 | 0.698 | 0.8
COc1ccccc1NC(=O)CC(c1ccc(OC(C)C)cc1)c1ccccc1OC (centres undefined) | nt | -0.1 | 10.3 | 1.2 | 1.4 | 0.761 | 1.3
Cc1ccc(C(=O)N2CCN(c3cccc(C)c3C)CC2)cc1S(=O)(=O)N1CCOCC1 | i | -86.6 | nt | 3.7 | 0.1 | 0.678 | 9.4
O=C(NC1CC1)c1cccc(NC(=O)C2CCC2)c1 | i | nt | nt | nt | 1.2 | nt | -6.6
COc1cc(SC)ccc1C(=O)OCC(=O)N1CC(=O)Nc2ccccc21 | i | 0.2 | -6.1 | 4.4 | 0.4 | 0.639 | -6.4
CC1CCCN(CCCNC(=O)c2ccc(N3CCCC3=O)cc2)C1 (centres undefined) | i | 2.4 | 1.4 | 3.2 | 3.5 | 0.642 | 4.0
Cc1cccc(C)c1NC(=O)C(C)c1ccc(-c2ccccc2)c(F)c1 (centres undefined) | nt | 3.8 | 0.4 | -0.3 | -0.5 | 0.751 | 11.5
COc1cc(C)c(C)cc1S(=O)(=O)n1c(C)nc2ccccc21 | i | -3.6 | -0.6 | nt | -1.5 | nt | -4.7
CCc1ccccc1NCc1cc(=O)oc2cc(C)ccc12 | i | 1.3 | -3.7 | 1.8 | 3.4 | 0.713 | 0.9
O=c1[nH]c2ccc(Cl)cc2c(-c2ccccc2)c1N1CCN(CCO)CC1 | nt | -0.2 | 31.6 | -168.4 | 11.8 | 0.663 | 3.1
Cc1ccc(N(Cc2ccc([N+](=O)[O-])cc2)C(=O)c2ccco2)cc1 | nt | 4.8 | -0.5 | 3.8 | 1.2 | 0.652 | 2.3
CC(C)(C)C(=O)O/N=C(\N)Cc1ccc(-c2csnn2)cc1 | i | 3.8 | nt | nt | -2.3 | nt | -11.9
COc1ccc2nc(SCC(=O)N(C)CC(=O)Nc3ccc(F)cc3)[nH]c2c1 | i | 1.6 | -0.3 | -1.1 | 2.0 | 0.61 | 5.0
CCCCC(=O)NC(=S)NNC(=O)CC | nt | -4.9 | 15.7 | 0.3 | -2.1 | 0.634 | 30.9
CCCCOc1ccc(N2CC(C(=O)NCc3ccco3)CC2=O)cc1 (centres undefined) | i | -0.6 | nt | -0.2 | 0.3 | 0.652 | -5.4
COc1ccc(CCNC(=O)c2c(-c3ccccc3)noc2C)cc1OC | i | 2.9 | -22.3 | 0.6 | -1.3 | 0.714 | 3.3
COc1ccc2cc(C(=O)Nc3ccc(O)cc3)sc(=O)c2c1OC | nt | 1.8 | -5.7 | nt | -1.6 | nt | 3.2
O=C(/C=C/c1cccc(F)c1)NCCCn1ccnc1 | i | -0.1 | nt | 1.1 | -5.0 | 0.659 | -8.5
CCOC(=O)Cc1csc(NC(=O)c2c(-c3ccccc3)noc2C)n1 | nt | 5.2 | -0.4 | 0.5 | 0.7 | 0.706 | -9.5
COc1cc(C(=O)O/N=C(\N)c2ccccn2)cc(OC)c1OC | i | -1.8 | 3.3 | 4.5 | 0.0 | 0.659 | 2.9
Brc1ccc(-c2csc(N3CCOCC3)n2)cc1 | i | -0.5 | 13.3 | 4.7 | 0.2 | 0.658 | 15.1
Cc1oc2cc(O)ccc2c(=O)c1Oc1ccccc1 | nt | 1.1 | -1.2 | -374.6 | 3.6 | 0.72 | -2.6
CN1CCc2c(OCC(=O)N3N=C(c4cccs4)CC3c3ccc(F)cc3)cccc2C1=O (centres undefined) | i | 1.3 | 4.7 | -15.6 | 7.8 | 0.634 | -4.9
CCOC(=O)C1CCN(C(=O)c2ccccc2NS(=O)(=O)c2cc(C)ccc2C)CC1 | nt | 0.7 | -5.4 | 3.2 | -1.9 | 0.753 | 4.3
O=C(NCc1ccco1)/C(=C\C=C\c1ccccc1)NC(=O)c1ccccc1Br | i | -10.8 | nt | 2.9 | 0.7 | 0.706 | 17.1
COC(=O)c1c(NC(=O)C2CCCCC2C(=O)O)sc2c1CCCCC2 (centres undefined) | i | 4.3 | 69.7 | -1.5 | 1.1 | 0.756 | 8.7
Cc1sc2ncnc(N3CCC(C(=O)N(CC(C)C)c4nc5ccccc5s4)CC3)c2c1C | i | -2.3 | -5.6 | 2.5 | 1.9 | 0.693 | 12.5
CCOc1ccc2c(c1)sc(=NC(=O)C1CC1)n2C | i | -1.2 | -2.8 | -10.1 | -0.8 | 0.673 | -3.6
CCc1ccc(N(CC(=O)NC2CCCC2)C(=O)CCC(=O)Nc2ccccn2)cc1 | i | -1.8 | -12.4 | 3.9 | -1.9 | 0.7 | -0.8
COC(=O)Cc1ccc(N(Cc2ccccc2F)S(=O)(=O)c2ccc(Br)cc2)cc1 | i | 0.2 | -4.5 | 1.9 | 1.6 | 0.738 | 7.7
COc1ccc(NC(=O)c2c(Cl)nc3ccccn23)cc1 | nt | 1.4 | -6.9 | 6.0 | -4.6 | 0.716 | -9.9
O=C(O)c1cccc(-n2cccc2/C=C2/NC(=O)N(Cc3ccccc3F)C2=O)c1 | i | 3.3 | -1.8 | nt | -9.5 | nt | -1.3
O=S(=O)(Nc1ccc(N2CCCCC2)cc1)c1ccc(F)cc1 | i | -2.5 | 98.5* | 2.3 | -4.8 | 0.636 | 0.1
Cc1ccccc1OCC(=O)NNC(=S)NC(=O)c1ccccc1[N+](=O)[O-] | i | 5.0 | nt | 2.5 | -1.1 | 0.689 | 3.9
O=S(=O)(CC(O)COc1ccc(Br)cc1)c1ccccc1 (centres undefined) | i | 4.4 | -4.2 | 7.3 | 2.3 | 0.651 | 0.8
Oc1ccc(Nc2ccnc3cc(Cl)ccc23)cc1 | i | 2.5 | 28.2 | nt | 2.2 | nt | 6.8
Cc1cccc(-c2cccc(NC(=O)C3CCCN(C(=O)c4csc(C)n4)C3)c2)c1 (centres undefined) | i | -9.9 | -7.8 | 2.1 | 1.4 | 0.65 | 9.6
Cc1cccc(C)c1NC(=S)N1CCCN(C)CC1 | i | -5.0 | nt | -0.8 | 6.7 | 0.748 | 0.6
COC(=O)Cc1c(CSc2ccccc2)oc2ccc(O)c(CN(C)C)c12 | i | 0.1 | nt | -0.6 | 9.2 | 0.677 | -9.9
COc1ccc([N+](=O)[O-])cc1-c1[nH]c(-c2ccc(C(=O)O)cc2)nc1-c1ccccc1 | i | -3.2 | 98.0* | 7.7 | -2.2 | 0.624 | -3.0
Cc1ccc(N(CC(=O)NCCSCc2ccco2)S(C)(=O)=O)cc1 | i | 4.7 | -0.7 | 1.6 | 1.2 | 0.728 | -5.0
CC(NS(=O)(=O)c1ccc2ccccc2c1)c1ccccn1 (centres undefined) | i | 4.6 | -6.3 | 0.3 | -1.3 | 0.662 | 0.3
O=C(N/N=C/c1coc2ccccc2c1=O)c1ccncc1 | i | 0.7 | 10.8 | nt | -5.4 | nt | -4.8
Nc1nc2c(s1)CCc1ccccc1-2 | i | 0.6 | 21.0 | 1.5 | -3.3 | 0.653 | -3.8
Cc1nc(N2CCC(C)CC2)c2c(C)c(C(=O)Nc3ccc4c(c3)OCCO4)sc2n1 | i | 1.7 | -6.9 | -1.0 | -2.4 | 0.752 | 7.3
Cc1ccccc1C(=O)N1CCN(c2nc(N3CCOCC3)nc(N3CCOCC3)n2)CC1 | nt | -1.2 | nt | 4.4 | 1.3 | 0.742 | 1.1
CCOc1ncccc1C(=O)N1CCN(S(=O)(=O)c2ccccc2)CC1 | i | -0.9 | -21.4 | 0.3 | 0.2 | 0.715 | 0.9
C/C(CC(=O)N1CCN(C=O)CC1)=N\NC(=O)c1ccc([N+](=O)[O-])cc1 | i | 4.4 | -5.5 | nt | -1.7 | nt | 6.2
COc1ccc(OC)c(-n2c(SCC(=O)NCC3CCCO3)nc3ccccc3c2=O)c1 (centres undefined) | i | -8.2 | -4.1 | 2.9 | 1.6 | 0.698 | -5.2
